Screening data (PubChem BioAssay)
CtBP-E1A blk: blocks the CtBP interaction with E1A | AlphaScreen GST-E1A/His-CtBP binding, 1536-well; active compounds read low; control for the full effect not named in the record | activity change, % (no concentration beside the values) | 340,000 compounds, 0.49% hits | AID 651724; in the data active means activity change below about -65%; inconclusive means about -30% to -65%; inactive means above about -30%; note: % is set by controls: 0 for no effect and ±100 for the full control effect
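Steps: dispense buffer (Tris pH 8.0, NaCl 300 mM, TCEP 1 mM, BSA, Tween 20); add 5X protein mix (GST-E1A, His-CtBP, 125 nM each); pin 23 nL compound; 2 h at 37 °C, dark; add 5X beads (50 ug/mL); 1 h; read.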
D2 PAM: potentiates the human D2 dopamine receptor allosterically; P14416; DiscoveRx D2 beta-arrestin cells, luminescence, 90 min; 100% = 57 uM dopamine signal; potentiation, % (no concentration beside the values); 360,000 compounds, 0.23% hits; active = potentiation of 50% or more; inconclusive = 30% to 50%; inactive = 30% or less;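 note: compound concentration not given in the record; tested on top of an EC20 dose of dopamine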
Target sequence (P14416 whole entry, looked up): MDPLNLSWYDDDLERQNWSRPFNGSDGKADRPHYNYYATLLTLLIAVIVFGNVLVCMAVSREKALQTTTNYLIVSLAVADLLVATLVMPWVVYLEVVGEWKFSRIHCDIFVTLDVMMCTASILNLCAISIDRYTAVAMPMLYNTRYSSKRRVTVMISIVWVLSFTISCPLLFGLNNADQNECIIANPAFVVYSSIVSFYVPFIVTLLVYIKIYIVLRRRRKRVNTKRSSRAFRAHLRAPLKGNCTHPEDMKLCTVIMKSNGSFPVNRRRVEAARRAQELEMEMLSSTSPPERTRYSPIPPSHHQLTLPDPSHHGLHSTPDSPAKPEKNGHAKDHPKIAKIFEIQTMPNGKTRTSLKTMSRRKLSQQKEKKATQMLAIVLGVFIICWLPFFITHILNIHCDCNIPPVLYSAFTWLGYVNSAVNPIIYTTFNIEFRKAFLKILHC
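PathHunter beta-arrestin assay in DiscoveRx D2 cells. Compounds were added with an EC20 of dopamine (50 nM final) for 90 min at 37 deg C. Luminescence was read 1 h after detection reagent, with 57 uM dopamine as the EC100 control.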
Six1-Eya2 inh: blocks human Six1 binding to Eya2; AlphaScreen GST-Six1/His-Eya2 binding, biochemical; active compounds read low; control for the full effect not named in the record; activity change, % (no concentration beside the values); 360,000 compounds, 0.56% hits; in the data active = activity change below about -65%; inconclusive = about -30% to -65%; inactive = above about -30%; note: % is set by controls: 0 for no effect and ±100 for the full control effect
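Homogeneous AlphaScreen proximity assay pairing GST-Six1 with His-tagged Eya2 (added as 5X mix: 250 nM and 500 nM) in 50 mM Tris pH 8.0, 300 mM NaCl, 1 mM TCEP. Glutathione donor and nickel acceptor beads; 1 h, 37 °C, dark.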
TRPML1 inh: inhibitors of human TRPML1 channel. activity change, negative = inhibition, % (concentration not given with the values). TRPML1-inducible cells, Ca2+ dye fluorescence, FDSS; active compounds read low; inhibition of EC80 agonist-evoked calcium signal. 390,000 compounds, 0.02% hits. AID 624415; in the data active means activity change below about -50%; inconclusive means about -30% to -50%; inactive means above about -30%;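 note: stimulus is agonist 54-4 at its EC80 concentration; % is set by controls: 0 for no effect and ±100 for the full control effect; the text of the record puts the active cut at -80%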
Target sequence (Q9GZU1 whole entry, looked up): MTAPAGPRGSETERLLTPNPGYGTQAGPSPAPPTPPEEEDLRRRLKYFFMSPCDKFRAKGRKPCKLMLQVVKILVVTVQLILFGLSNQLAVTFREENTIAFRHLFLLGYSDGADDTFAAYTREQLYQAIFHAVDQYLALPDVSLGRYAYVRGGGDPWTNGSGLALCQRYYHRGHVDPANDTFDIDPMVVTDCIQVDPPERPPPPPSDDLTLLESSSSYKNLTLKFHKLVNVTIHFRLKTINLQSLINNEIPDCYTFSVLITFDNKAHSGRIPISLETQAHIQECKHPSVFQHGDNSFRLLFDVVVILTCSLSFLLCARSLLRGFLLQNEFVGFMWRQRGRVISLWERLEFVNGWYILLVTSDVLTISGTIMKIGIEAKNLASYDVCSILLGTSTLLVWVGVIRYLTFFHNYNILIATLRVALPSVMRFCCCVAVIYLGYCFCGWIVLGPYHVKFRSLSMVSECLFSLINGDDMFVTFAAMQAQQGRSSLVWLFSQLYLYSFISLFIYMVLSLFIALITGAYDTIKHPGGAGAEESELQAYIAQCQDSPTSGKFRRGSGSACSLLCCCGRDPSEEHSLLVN
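Calcium fluorescence in TRPML1-DL cells induced overnight with Tet: a 110 s read after compound pin addition, then a 110 s antagonist read after challenge with 54-4 at 4 uM final (EC80).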
TRPV1 potentiator: potentiators of human vanilloid receptor 1 (TRPV1). Q8NER1. 320,000 compounds, 0.02% hits. potentiation, % at 8.33 µM. TRPV1-expressing cells, Fluo-8 calcium influx, capsaicin EC20 potentiation; host cell line not named in the record; control for the full effect not named in the record. AID 540277; active means potentiation above 80%; inconclusive means 30% to 80%; inactive means below 30%; note: 0% is about no effect
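Cells expressing TRPV1 were dye-loaded with Fluo-8 and read kinetically: 10 s baseline, 3 min after compound (agonist portion), then 2 min after EC20 capsaicin (allosteric enhancer portion). Calcium-bound dye fluorescence at 480/520 nm.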
TRPML1 ag: agonists of human TRPML1 channel | Q9GZU1 | activation, % (concentration not given with the values) | TRPML1-expressing cells, Ca2+ dye fluorescence, FDSS; host cell line not named in the record; reference of the full effect not given here | 410,000 compounds, 0.12% hits; in the data active = activation above about 50%; inconclusive = about 30% to 50%; inactive = below about 30%; note: 0% is about no effect; the text of the record puts the active cut at 80%
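TRPML1-DL cells, Tet-induced overnight (~16 h, 37 degrees C), loaded 45-90 min at room temperature with Ca8 no-wash calcium dye plus quencher. FDSS fluorescence: 10 s baseline, compound pin-transfer, 110 s agonist read, then EC80 54-4 (4uM final) and 110 s antagonist read.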
* marks the source's active call; other numbers are inactive results; u = inconclusive; x = not tested or not shown. This is a random part of the collection; about 0.95% have a hit in one of these screens.

1. O=C(N/N=C/c1ccc(Br)cc1)c1ccc(F)cc1
2. O=C(CC1SC(N2CCCCC2)=NC1=O)Nc1cccc(C(F)(F)F)c1 (stereo not drawn)
3. COc1ccc(-c2[nH]ncc2/C=N/NC(=O)c2ccncc2)c(OC)c1
4. CN(c1ccc(OCC(=O)Nc2ccccc2C(=O)O)cc1)S(=O)(=O)c1ccc(Cl)cc1
5. CCOC(=O)N1CCN(c2c(Nc3cc(C)[nH]n3)c(=O)c2=O)CC1
6. CCCCN(C(=O)c1cccc(-c2ccc(OC(C)=O)cc2)c1)c1c(N)n(CCC)c(=O)[nH]c1=O
7. Cc1cccc(C2=NN(c3ccccc3)[C@@H](C(=O)N3CCOC3=O)[C@@H]2c2ccc(Cl)cc2)c1
8. O=C(CN1C(=O)CCSc2ccc(S(=O)(=O)N3CCCC3)cc21)NCc1ccccc1Cl

entry no.,1,2,3,4,5,6,7,8
D2 PAM,-27,-44,-14,62*,-3,-14,-2,-7
Six1-Eya2 inh,2,2,0,-17,6,4,17,1
TRPV1 potentiator,-14,-2,-10,x,-2,x,x,15
TRPML1 inh,0,7,-14,-3,-1,-12,-10,16
CtBP-E1A blk,-4,-3,8,-11,-1,x,-4,1
TRPML1 ag,0.1,0.5,-0.5,1.2,-0.4,0.1,1.6,1.8

9. O=C(NCc1ccccn1)c1nnc(Cc2ccc(Cl)cc2)o1
10. Cn1cc(C(=O)N/N=C/c2c(O)ccc3ccccc23)ccc1=O
11. CCN1CCN(C(=O)c2ccc(CN(c3ccc(C)c(C)c3)S(C)(=O)=O)cc2)CC1
12. Oc1ccc(-c2nccc(-c3ccc(F)cc3)n2)cc1
13. COc1ccc(NC(=O)C(c2ccccc2)N2CCN(c3ccccn3)CC2)cc1Cl (stereo not drawn)
14. COc1ccc(NC(=O)N(C)C[C@H]2Oc3c(NC(=O)Nc4ccc5c(c4)OCO5)cccc3C(=O)N([C@H](C)CO)C[C@@H]2C)cc1
15. CCOC(=O)/C(C#N)=C/c1c(N2CCN(c3ccccc3)CC2)nc2c(C)cccn2c1=O
16. O=C(Cc1ccccc1)N1CCCC1c1ccccc1 (stereo not drawn)

entry no.,9,10,11,12,13,14,15,16
D2 PAM,-4,u,-9,-2,-3,8,-1,0
Six1-Eya2 inh,4,-89*,0,-4,-18,-11,0,1
TRPV1 potentiator,-1,-15,-3,-13,0,x,1,-7
TRPML1 inh,21,20,21,39,-1,-6,-2,-11
CtBP-E1A blk,4,x,-2,-26,-1,-5,0,9
TRPML1 ag,-0.8,5.3,0.1,2.2,-0.3,-0.6,1.8,0.1

Some entries already given, showing only TRPML1 ag and Six1-Eya2 inh.
cpd	SMILES	TRPML1 ag	Six1-Eya2 inh
9	O=C(NCc1ccccn1)c1nnc(Cc2ccc(Cl)cc2)o1	-0.8	4
10	Cn1cc(C(=O)N/N=C/c2c(O)ccc3ccccc23)ccc1=O	5.3	-89*
11	CCN1CCN(C(=O)c2ccc(CN(c3ccc(C)c(C)c3)S(C)(=O)=O)cc2)CC1	0.1	0
12	Oc1ccc(-c2nccc(-c3ccc(F)cc3)n2)cc1	2.2	-4

(listing goes on)
17. COc1ccc([C@H]2/C=C\CN(Cc3ccc(N(C)C)cc3)[C@@H](C)C(=O)N2Cc2ccc(F)cc2)cc1
18. Cc1ccc(N2CCC(N3CCN(C)C(CCO)C3)CC2)cc1 (stereo not drawn)
19. COCCCNC(=S)N1CCCC(c2nc3cc(C)c(C)cc3[nH]2)C1 (stereo not drawn)
20. COc1ccc(-c2ccc(OC)c(OC)c2OC)c(OC)c1OC
21. COc1ccc(C(=O)/C=C/c2ccc(OC(=O)c3cc(OC)c(OC)c(OC)c3)cc2)cc1
22. CCCCNCC(O)(c1ccc(Cl)cc1)c1ccc(Cl)cc1
23. CN1CCCN(C(=O)CSc2ccccc2)CC1
24. CN1Cc2c(N3CCOCC3)nc3sc(C#N)c(N)c3c2CC1(C)C

entry no.,17,18,19,20,21,22,23,24
D2 PAM,-11,-5,-5,-11,-3,-12,-3,-8
Six1-Eya2 inh,u,2,2,12,1,6,4,0
TRPV1 potentiator,x,8,0,x,4,4,-6,-6
TRPML1 inh,70,-13,7,7,-13,13,-2,-9
CtBP-E1A blk,-65*,-1,6,-2,8,-13,4,-5
TRPML1 ag,1.5,0.0,0.3,-0.5,1.5,0.4,0.2,0.7

Entries of single compounds, quoted from the list:
Profile of COc1ccc(C(=O)/C=C/c2ccc(OC(=O)c3cc(OC)c(OC)c(OC)c3)cc2)cc1 → D2 PAM: -3; Six1-Eya2 inh: 1; TRPV1 potentiator: 4; TRPML1 inh: -13; CtBP-E1A blk: 8; TRPML1 ag: 1.5
Profile of CCOC(=O)/C(C#N)=C/c1c(N2CCN(c3ccccc3)CC2)nc2c(C)cccn2c1=O → D2 PAM: -1; Six1-Eya2 inh: 0; TRPV1 potentiator: 1; TRPML1 inh: -2; CtBP-E1A blk: 0; TRPML1 ag: 1.8

(listing goes on)
25. CN1CCN(NC(=O)c2cccc(C(F)(F)F)c2)CC1
26. Cc1cc(F)ccc1-c1cc(C(=O)NCc2ccco2)[nH]n1
27. CC(C)=CCCC(C)NC(=O)NC1CCCCC1 (stereo not drawn)
28. O=C(c1ccc(-c2ccccc2Cl)o1)N1CCCC(C(F)(F)F)C1 (stereo not drawn)
29. O=C(COc1ccc(Cl)cc1)Nc1cccc(S(=O)(=O)NC2=NCCCCC2)c1
30. CC1(C)CC(=O)C2=C(C1)OC(c1ccc(O)cc1)C(C#N)=C2N (stereo not drawn)
31. COc1ccc(-c2nnc3n(CCc4ccccc4)c(=O)c4ccccc4n23)c(OC)c1
32. O=C(CSc1c[nH]c2ccccc12)NCC1CCCO1 (stereo not drawn)

entry no.,25,26,27,28,29,30,31,32
D2 PAM,-3,-16,-25,-1,14,-5,-8,0
Six1-Eya2 inh,-6,-5,8,22,2,30,3,0
TRPV1 potentiator,0,x,-20,-15,-13,-2,-2,0
TRPML1 inh,-9,x,1,-2,20,10,-9,7
CtBP-E1A blk,4,1,9,x,6,-22,-10,2
TRPML1 ag,0.7,-0.9,-0.2,1.6,0.2,-0.4,-0.3,0.1

33. CC(C)c1nc(SCC(=O)Nc2cccc(C(F)(F)F)c2)c2c(=O)n(C)c(=O)n(C)c2n1
34. COc1ccc(C(=O)CCN2CCN(c3ccc(OC)cc3)CC2)cc1
35. CCS(=O)(=O)N1CCN(C(=O)c2ccccc2)CC1
36. O=C(CCn1c(=O)oc2ccccc21)Nc1ccc(N2CCOCC2)cc1
37. CCOc1ccc(S(=O)(=O)N2CCN(c3ccc(OC)cc3)CC2)c2cccnc12
38. CCOC(=O)C1=C(c2ccccc2)NC(SCC(N)=O)=C(C#N)C1c1cccnc1 (stereo not drawn)
39. O=c1c2ccccc2oc2cc(OCc3cccc(F)c3)cc(O)c12
40. COc1cc(C(=O)NCC(C)C)cc(OC)c1OC

entry no.,33,34,35,36,37,38,39,40
D2 PAM,-4,-17,7,-8,-5,-2,-2,4
Six1-Eya2 inh,4,-20,2,-2,u,-2,0,2
TRPV1 potentiator,12,-9,1,25,8,-1,16,-3
TRPML1 inh,0,28,17,-18,-17,-6,4,-7
CtBP-E1A blk,-5,-1,7,-3,u,6,-1,-6
TRPML1 ag,0.0,1.7,-0.6,-0.6,0.7,1.7,-0.9,0.7

41. Cc1ccc(NC(=O)Cn2c(=S)[nH]c3ccccc32)cc1
42. COc1ccc(OC)c(CN2CCN(C(=O)c3ccc(S(=O)(=O)N4CCCCCC4)cc3)CC2)c1
43. COc1cc(NS(=O)(=O)c2ccc(NC(C)=O)cc2)nc(OC)n1
44. CCN(CC(=O)Nc1ccc(OC)cc1)C(=O)c1ccc2[nH]c3c(c2c1)CC(C)CC3 (stereo not drawn)
45. Cc1ccc(-c2nnc(Oc3ccc(NC(=O)c4ccccc4)cc3)c3ccccc23)cc1
46. CCC1(C)Cc2c(sc3nc(SCC(=O)c4ccccc4)[nH]c(=O)c23)CO1 (stereo not drawn)
47. CS(=O)(=O)N(CC(=O)N1CCN(Cc2ccccc2)CC1)c1ccccc1F
48. COc1ccccc1NC(=O)c1nn(-c2ccc(OC(F)(F)F)cc2)ccc1=O

entry no.,41,42,43,44,45,46,47,48
D2 PAM,-2,-23,-8,-2,-7,-4,-10,-7
Six1-Eya2 inh,0,-22,0,-29,4,0,-2,-4
TRPV1 potentiator,-16,x,28,-16,0,5,-4,6
TRPML1 inh,-7,15,-4,14,-1,23,-4,7
CtBP-E1A blk,0,-2,3,-23,-18,8,0,-1
TRPML1 ag,0.9,-1.1,-0.5,1.0,-0.9,2.6,-0.2,-0.8

49. CCOC(=O)/C(C#N)=C/c1cc2ccccc2nc1Cl
50. COc1ccccc1NC(=O)C1CCCN(c2cc(C)nc3ncnn23)C1 (stereo not drawn)
51. C=CCn1c(SCC(=O)NC2CC2)nnc1-c1cccc(OC)c1
52. O=C1CC(N2CCN(C3CCc4ccccc4C3)CC2)C(=O)N1c1ccccc1 (stereo not drawn)
53. CCC(C)C(=O)Nc1nc(C)c(-c2csc(Nc3ccccc3OC)n2)s1 (stereo not drawn)
54. CS(=O)(=O)c1ccc(Cl)c(NC(=O)COC(=O)c2ncc(Cl)c(Cl)c2Cl)c1
55. CCCCCCCCOC(=O)C[N+](C)(C)C/C=C(/C)Cl
56. COc1ccc(CN(C)C(=O)c2ccc3c(=O)n4c(nc3c2)CCC4)c(OC)c1

entry no.,49,50,51,52,53,54,55,56
D2 PAM,-12,-15,-20,-7,-17,11,-3,-7
Six1-Eya2 inh,1,-7,-1,-8,17,4,3,-7
TRPV1 potentiator,-16,-33,7,x,-3,7,-9,-5
TRPML1 inh,4,-9,-14,2,28,2,-1,12
CtBP-E1A blk,4,-3,-2,0,-11,-1,x,-9
TRPML1 ag,0.5,0.4,0.2,0.1,0.7,0.4,-0.6,0.4

57. C=CCN(CC=C)S(=O)(=O)c1ccc(C(=O)Nc2nc3c(s2)CCc2ccccc2-3)cc1
58. CCS(=O)(=O)N1CCN(C(=O)c2cccc3ccccc23)CC1
59. COc1cc(=O)n(C)c2c(OCC(O)C(C)(C)O)cccc12 (stereo not drawn)
60. COC(=O)C(C)n1cnc2c(nnn2-c2cccc(Cl)c2)c1=O (stereo not drawn)
61. O=C(Nc1nc2c(Cl)cccc2s1)C1CC1
62. COc1cccc(Nc2ncnc3nc[nH]c23)c1
63. COc1ccc(N2CCN(C(=O)COC(=O)c3c(-c4ccccc4)noc3C)CC2)cc1
64. CCOC(=O)c1c(NC(=O)c2c(C(=O)O)cccc2[N+](=O)[O-])sc2c1CCCC2
65. COc1ccc(C(=O)c2c(C)oc3ccc(O)cc23)cc1

entry no.,57,58,59,60,61,62,63,64,65
D2 PAM,-2,-3,-6,-6,-3,1,-1,-7,-4
Six1-Eya2 inh,5,-5,-3,1,-8,-2,-8,-5,-1
TRPV1 potentiator,-20,-22,-1,27,-2,-12,-13,9,-11
TRPML1 inh,2,0,0,16,1,19,5,29,-3
CtBP-E1A blk,-1,-1,4,-2,x,3,x,0,-1
TRPML1 ag,0.6,0.3,-0.8,7.5,-0.6,-0.8,-1.1,-1.6,0.5
